Mtb betalactam = beta-lactam sensitization of Mtb H37Rv, H37Rv | M. tuberculosis H37Rv growth with meropenem, percent inhibition; hits of this screen are not shown here | inhibition, % at 25 µM | 0.27% of 330,000 active;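 active = about 74% or more and at least 40 points above the plate without the antibiotic, then above 30% in a dose series; inconclusive = first-round hits that could not be retested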;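 note: growth measured after seven days incubation then overnight dye step; 0% = bacteria only wells and 100% = bacteria with antibiotic; twin plates without the antibiotic show which effects depend on it; some results filed as inactive read as strong as hits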
Mtb H37Rv = M. tuberculosis H37Rv growth inhibitors, H37Rv strain (AID 1626); M. tuberculosis H37Rv growth inhibition; higher % means a stronger effect; 0.95% of 220,000 active; inhibition, % at 10 µM; hits with a dose series show IC50 in µM;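 active = confirmed in a dose series; inconclusive = inhibition above 80% but not taken into the dose series; inactive = below 80% or under 30% at every dose of the series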;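 note: bacteria incubated seven days before Alamar blue readout; 0% = bacteria only wells and 100% = bacteria with antibiotic wells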
YopH inh = YopH tyrosine phosphatase inhibitors, primary screen, biochemical, fluorescence Ex485/Em525; inhibition, %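 (about 10 µM by stock and volumes)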; 0.16% of 140,000 active; AID 898, 2007;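 active = inhibition of 50% or more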;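 note: controls were vehicle for no effect and minimum signal wells for full effect; inactives centre near -20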
Arbovirus inh = antivirals against arbovirus infection, primary screen, cell-based, full library, 10K replicate subset | arbovirus infection cell-based antiviral screen | inhibition, % at 10 µM | 0.37% of 200,000 active;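 active = inhibition from about 30%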;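 note: bluetongue infection of BSR cells; cell survival read as ATP light after 72 h; 0% = infected wells without compound and 100% = uninfected wells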
RecA splice inh = Mtb RecA intein splicing inhibitors, primary screen, biochemical, fluorescence, HTS; AID 2221, 2009; 0.75% of 290,000 active; Protein RecA (Mycobacterium tuberculosis (strain ATCC 25618 / H37Rv)), P9WHJ3; cell-free RecA intein splicing; inhibition, %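 (about 9 µM by stock and volumes)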; in the data active = inhibition above about 30%; inconclusive = no clear call, values can overlap the other calls;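 note: 0% = vehicle wells and 100% = reference inhibitor control wells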
Target sequence (P9WHJ3 whole entry, looked up, canonical isoform): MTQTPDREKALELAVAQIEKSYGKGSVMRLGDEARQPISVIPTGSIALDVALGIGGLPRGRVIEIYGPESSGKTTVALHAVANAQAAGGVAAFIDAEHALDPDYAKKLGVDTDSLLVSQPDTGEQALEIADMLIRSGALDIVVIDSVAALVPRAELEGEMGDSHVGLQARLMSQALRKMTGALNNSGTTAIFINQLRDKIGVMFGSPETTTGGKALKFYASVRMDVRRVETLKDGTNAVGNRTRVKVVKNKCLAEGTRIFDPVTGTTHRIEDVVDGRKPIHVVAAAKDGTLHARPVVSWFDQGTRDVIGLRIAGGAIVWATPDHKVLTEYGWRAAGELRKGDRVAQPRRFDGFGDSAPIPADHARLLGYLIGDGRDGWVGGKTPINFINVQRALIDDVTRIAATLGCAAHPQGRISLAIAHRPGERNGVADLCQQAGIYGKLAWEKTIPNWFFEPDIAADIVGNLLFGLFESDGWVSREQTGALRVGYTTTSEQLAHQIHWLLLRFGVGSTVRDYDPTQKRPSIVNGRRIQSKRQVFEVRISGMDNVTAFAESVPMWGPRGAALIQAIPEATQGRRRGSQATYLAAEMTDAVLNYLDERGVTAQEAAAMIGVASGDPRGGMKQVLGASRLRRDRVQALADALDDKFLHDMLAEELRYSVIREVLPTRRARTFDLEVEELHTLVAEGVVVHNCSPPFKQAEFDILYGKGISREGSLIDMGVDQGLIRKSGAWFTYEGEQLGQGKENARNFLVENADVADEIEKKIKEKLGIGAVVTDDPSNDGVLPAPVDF
Arbovirus inh repeat = recorded beside Arbovirus inh, whose call it bears; inhibition, %; measured here: 10K subset replicate screen; many hits read low in the repeat;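 first of two repeat runs on a subset; 0% = infected and 100% = uninfected wells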
Numbers without * were called inactive; ? = inconclusive; . = not tested or not shown. These rows are one share of the data; count on the stated rates, not on these rows.

SMILES	Mtb betalactam	Mtb H37Rv	YopH inh	Arbovirus inh	RecA splice inh	others
COc1ccc(C2CC(c3cccs3)=NN2C(=O)CSc2nncn2C)cc1OC (stereo unspecified)	2	-9%	.	6	-2.4
CC1(C)Oc2ccc3ccc(=O)oc3c2CC1O (stereo unspecified)	-5	.	.	.	-2.2
Cc1[nH]c(=O)[nH]c(=O)c1/C=N/NC(=O)[C@H](CC(C)C)NC(=O)OC(C)(C)C	-6	.	-11	3	-3.4
O=C(OCC(=O)N1CCCCCC1)c1cccs1	-7	3%	-36	2	0.3
O=C(COC(=O)CCC(=O)Nc1nccs1)NCc1ccco1	-5	81%	-3	3	-4.9
COc1ccc(F)c(C2C(C#N)=C(N)Oc3n[nH]c(C(C)(C)C)c32)c1 (stereo unspecified)	2	-18%	-8	-5	7.2
COc1ccc(-n2c(=O)c3ccccc3n(CC(=O)Nc3ccccc3OC)c2=O)cc1	-1	-3%	.	0	-0.8
COC(=O)N/N=C1\CCCc2c(C)cc(C)cc21	-2	-3%	.	-5	0.7
CCSc1nc2sc3c(c2c(=O)n1-c1ccccc1)CCN(C(C)C)C3	92	.	.	.	-8.1
O=C(c1ccco1)N1CCN(CCOc2ccccc2)CC1	-3	0%	.	.	-0.2
COc1ccc(NC(=O)CCCNS(=O)(=O)c2cccs2)cc1	2	1%	-33	3	3.2
NC(=O)C[n+]1cccc(/C=N/O)c1	0	-5%	.	3	.

Fetched by structure from the list above (six):
SMILES	Mtb betalactam	Mtb H37Rv	YopH inh	Arbovirus inh	RecA splice inh	others
O=C(c1ccco1)N1CCN(CCOc2ccccc2)CC1	-3	0%	.	.	-0.2
COC(=O)N/N=C1\CCCc2c(C)cc(C)cc21	-2	-3%	.	-5	0.7
COc1ccc(NC(=O)CCCNS(=O)(=O)c2cccs2)cc1	2	1%	-33	3	3.2
O=C(COC(=O)CCC(=O)Nc1nccs1)NCc1ccco1	-5	81%	-3	3	-4.9
NC(=O)C[n+]1cccc(/C=N/O)c1	0	-5%	.	3	.
COc1ccc(-n2c(=O)c3ccccc3n(CC(=O)Nc3ccccc3OC)c2=O)cc1	-1	-3%	.	0	-0.8

Continued.
SMILES	Mtb betalactam	Mtb H37Rv	YopH inh	Arbovirus inh	RecA splice inh	others
Cc1ccc(C2=CC(c3ccccc3)n3ncnc3N2)c(C)c1 (stereo unspecified)	44	-8%	.	.	-0.4
FC(F)(F)c1cccc(N2CCN(Cc3ccoc3)CC2)c1	-10	1%	-13	-11	.
COc1ccc(-c2ccc(SCC(=O)N3c4ccccc4CC3C)nn2)cc1OC (stereo unspecified)	0	-3%	8	-4	4.6
CC(c1ccccc1)n1cncc1C(=O)N1CCCC1=O (stereo unspecified)	-22	-3%	-42	6	1.0
CCC(C)(C)n1nnnc1C(c1ccc(C)cc1)N1CCN(C(=O)c2ccco2)CC1 (stereo unspecified)	2	2%	-24	-1	-3.3
O=[N+]([O-])c1cccc(C2=NCCC(c3ccccc3)O2)c1 (stereo unspecified)	-15	-9%	5	-2	1.1
CCN(Cc1ccccc1)C(=S)Nc1cc(C(=O)OC)ccc1C(=O)OC	8	-6%	-23	-4	7.9
COc1ccc(Cn2c(=N)c(C(=O)NCC3CCCO3)cc3c(=O)n4ccccc4nc32)cc1 (stereo unspecified)	-7	.	.	.	-12
O=C(O)CCCn1ccc2cc(S(=O)(=O)N3CCCC3)ccc21	2	.	.	.	-5.4
NC(=O)CC(NC(=O)Cc1cccc2ccccc12)c1ccc(NCCN2CCCC2)c([N+](=O)[O-])c1 (stereo unspecified)	1	.	.	.	-1.5
CSc1nc(N2CCOCC2)c2c(c1C#N)CCCCC2	7	6%	-36	3	-3.7
Cc1noc2ncnc(Sc3ccc(Br)cc3)c12	100	46%	.	-22	37*
Cc1ccc(CNC(=O)C2CCCN2C(=O)Nc2ccc(C)cc2)cc1 (stereo unspecified)	-27	.	.	.	2.3
CCn1ncc(Br)c1C(=O)N(C)C12CC3CC(CC(C3)C1)C2	-5	4%	-29	13	6.9
CC(C)c1c(C(=O)N/N=C/c2cccc(OCc3ccc(F)cc3)c2)nnn1-c1nonc1N	5	.	.	.	1.4
O=C(COc1ccc(Br)cc1)Nc1ccc(Cc2ccncc2)cc1	99	?	.	1	12
CCc1c(C#N)c(SCCC(=O)Nc2ccc(OC)cc2)nc2c1C(=O)CC(C)(C)C2	-12	7%	-24	7	-0.4
CCOC(=O)c1ccc(NC(=O)Cn2c(C)nc3c(sc(=S)n3CC)c2=O)cc1	-5	.	.	.	2.5
COC(=O)/C(=C1/Oc2cc(C)oc(=O)c2S1)C(F)(F)F	99	0.7µM*	-27	-46	44*
COc1ccc(C(=O)NCC(c2cccs2)N2CCc3ccccc32)cc1OC (stereo unspecified)	6	.	.	.	6.5
COc1ccc(C)cc1Nc1n[n+](-c2ccccc2)c(-c2ccc(SC)cc2)s1	82	.	.	.	8.6
Cc1ccc(CNC(=O)c2ccccc2NS(=O)(=O)c2ccc(Cl)nc2)cc1	-8	.	.	.	1.9
COc1ccc(NC(=O)CSc2nnc(CN3CCOCC3)n2C)cc1Cl	2	.	.	.	-0.6
CC1Cc2cc(S(=O)(=O)CCC(=O)N3CCN(c4ccccc4)CC3)ccc2N1C(=O)C1CC1 (stereo unspecified)	1	.	.	.	1.5
O=C(O)CCCCCNS(=O)(=O)c1cccc2nsnc12	1	-6%	-20	2	.
Cc1cccn2c(=O)c(/C=C(\C#N)C(=O)NCc3ccco3)c(N3CCOCC3)nc12	-3	-1%	.	.	-0.6
O=C(N/N=C/c1c[nH]c2ccccc12)C1CC1(c1ccccc1)c1ccccc1 (stereo unspecified)	-1	4%	2	-41	1.6
C=CCn1nc(-c2ccccc2)cc1C(=O)OCC	-6	-11%	.	.	0.1
COc1ccc(CNn2cnnc2)c(O)c1	0	.	.	.	1.0
Cc1ccsc1C(=O)C1CCCN(Cc2c(C)nn(C(C)C)c2C)C1 (stereo unspecified)	3	4%	.	7	-0.5
Cc1ccc(C(c2nnnn2C2CCCCC2)N(C)C2CCCCC2)cc1 (stereo unspecified)	0	4%	2	-25	1.8
COCc1nc2ccccc2n1Cc1cccc(C)c1	9	-6%	-120	0	0.2
O=C(Nc1ccccc1-c1ccccc1)c1ccc(=O)[nH]n1	-1	.	.	.	1.2
CN(Cc1ccccc1)C(=O)c1ccc2c(c1)NC(=O)C(N1CCOCC1)S2 (stereo unspecified)	.	-1%	.	4	1.2
Cc1nc(Cl)sc1C(=O)Nc1ccccc1Cl	-1	.	.	.	-0.3
O=C(NCc1ccccc1F)C1CC(=O)N(c2ccc3c(c2)OCCO3)C1 (stereo unspecified)	3	.	.	.	-3.0
CC(C)Cn1c(=O)oc2ccccc21	-3	-8%	.	9	-5.4
Cc1cc(NC(=O)CSc2nc3c(cc2C#N)CCCC3)no1	-4	-1%	-21	-13	4.3
CCOC(=O)CCNC(=O)N1CCCC(C(=O)c2ccc3c(c2)OCO3)C1 (stereo unspecified)	-11	1%	.	6	-2.9
O=C(OCc1ccccc1)C1=NNC2C(=O)N(Cc3ccccc3)C(=O)C12 (stereo unspecified)	-5	8%	.	8	2.3
CC(C)(C)NC(=O)Cn1nnc(-c2ccc(Cl)cc2)n1	2	-2%	-43	-4	.
O=C(O)COc1ccc(/C=N/NC(=O)/C(=C/C=C/c2ccccc2)NC(=O)c2ccccc2)cc1	3	.	.	.	6.8
O=C(CS(=O)(=O)Cc1ccccc1)NCC1CCCO1 (stereo unspecified)	-3	-6%	-14	4	-2.8
CNC(=O)NC(=O)C(C)OC(=O)c1c2c(nc3ccccc13)/C(=C/c1cccs1)CC2 (stereo unspecified)	99	?	-21	-10	-41
COC(CNC(=O)C(=O)Nc1cc2c3c(c1)CCN3C(=O)CC2)OC	1	.	.	.	1.0
CCOc1ccccc1CNC(=O)CCn1ccc2cc(S(=O)(=O)N3CCCCC3)ccc21	5	.	.	.	3.7
Cc1ccc(C)c(Nc2ccc3nonc3c2[N+](=O)[O-])c1	1	.	.	.	1.0
O=C(CSc1nnc(-c2cccnc2)n1-c1ccccc1)Nc1ccc2c(c1)OCO2	6	-3%	10	4	-0.4
O=C(NCCN1CCOCC1)c1cc([N+](=O)[O-])ccc1Cl	7	.	.	.	-1.6
COc1ccc(-n2ncc3c(NCCCn4ccnc4)ncnc32)cc1	5	17%	-2	-11	5.9
COc1cc(OC)c(C(=O)O/N=C(\N)c2cccc(C)c2)cc1OC	14	.	.	.	1.8
CON/C=C(\C=Nc1ccc(Cl)cc1)c1ncc(C(F)(F)F)cc1Cl	-2	4%	-24	-2	.
COc1ccccc1C/C(N)=N/OC(=O)c1cccs1	-3	4%	.	-2	2.8
O=C(COC(=O)c1ccccc1)Nc1ccccc1Br	0	-2%	.	2	-0.5
CC(C)COC(=O)c1ccc(NC(=O)C2C3CCC(C3)C2C(=O)O)cc1 (stereo unspecified)	82	5%	-23	-2	1.9	Arbovirus inh repeat=5
COc1ccc(-c2nc(CS(=O)(=O)CC(=O)NCCCN3CCN(C)CC3)c(C)o2)cc1	-4	.	.	.	-1.0
COc1ccc(NC(=O)CS(=O)CC(=O)Nc2ccc(F)cc2F)cc1 (stereo unspecified)	-4	.	.	.	0.5
COc1ccc(C(=O)c2sc(Nc3ccccc3)c(C(=O)Nc3ccc(OC)c(OC)c3)c2N)cc1	39	4%	2	17	11
Cc1cc(NC(=O)CCC(=O)N(c2ccccc2)C(C(=O)NC2CCCCC2)c2cccs2)no1 (stereo unspecified)	-11	3%	-16	-7	0.7
COc1ccc2[nH]c3c(c2c1)CCC/C3=N\N	5	1%	.	.	-2.2
COc1ccc(/C=C/C(=O)NNc2cc(=O)n(C)c(=O)n2C)cc1OC	1	-6%	.	.	0.1
CCN(CC(=O)NC1CCS(=O)(=O)C1)S(=O)(=O)c1ccc(Cl)cc1C(F)(F)F (stereo unspecified)	-11	.	.	.	-3.9

Ordered by molar mass (descending): five of the compounds above.
SMILES	Mtb betalactam	Mtb H37Rv	YopH inh	Arbovirus inh	RecA splice inh	others
COc1ccc(-n2c(=O)c3ccccc3n(CC(=O)Nc3ccccc3OC)c2=O)cc1	-1	-3%	.	0	-0.8
Cc1ccc(CNC(=O)c2ccccc2NS(=O)(=O)c2ccc(Cl)nc2)cc1	-8	.	.	.	1.9
CN(Cc1ccccc1)C(=O)c1ccc2c(c1)NC(=O)C(N1CCOCC1)S2 (stereo unspecified)	.	-1%	.	4	1.2
COc1ccc(F)c(C2C(C#N)=C(N)Oc3n[nH]c(C(C)(C)C)c32)c1 (stereo unspecified)	2	-18%	-8	-5	7.2
O=C(c1ccco1)N1CCN(CCOc2ccccc2)CC1	-3	0%	.	.	-0.2

Bioassay records as filed in PubChem BioAssay.
